High-throughput results (PubChem BioAssay)
eIF4H inh – inhibitors of RNA binding by human eIF4H | eIF4H fluorescence polarization binding assay | Q15056 | 0.94% of 290,000 active | inhibition, % at 35 µM | AID 2012;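 active means 50% or more with normal probe brightness, or confirmed in later tests; inconclusive means above 50% with abnormal brightness, or retests that disagree; inactive means below 50% or failed in later tests; about a fifth of its hits are not listed in these tables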;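 further: calls also rest on retests at 20 µM and on dose response follow-up; 0% = protein and probe with vehicle and 100% = probe without protein; strong numbers were not always called active; many hits fall short of the cut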
CSC inhib – cancer stem cell inhibition; cancer stem cell-like cells viability, luminescence; inhibition, % at 7.5 µM; 1.1% of 300,000 active; AID 2717;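 active means mean at 75% or more and at least half the replicates too; inconclusive means mean and replicates disagree; tested in HMLE shEcad cells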;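 further: 0% = median of negative and 100% = median of positive control wells; the first replicate is given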
HIV Env fusion – HIV envelope-mediated fusion inhibition; 1.1% of 360,000 active; HeLa-JRFL Env/CEM21 cell fusion, luciferase; inhibition, % at 12.3 µM;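 active means mean replicate inhibition score of at least 50 and every replicate individually at or above 50; inconclusive means only one of the two criteria met; inactive means mean below 50 and not all replicates reaching 50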;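 further: 0% = plate neutral controls and 100% = maraviroc near 300 nM; one replicate is shown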
MT1-MMP act inh – inhibitors of human MT1-MMP activation. AID 651647. HT1080 RFP-PRO-GFP cells, GFP/RFP ratio fluorescence, overnight; percent of plate control window, DMSO zero. P50281. GFP/RFP ratio change, % at 20 µM. 0.061% of 360,000 active;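 active means GFP/RFP ratio change of at least 30% with cell ATP level not reduced by more than half and red fluorescence within 50% of control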; further: strong numbers were not always called active
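Compound: 20 µM single dose, 1% DMSO / System: HT1080 RFP-PRO-GFP cells / Controls: DMSO and RFP-L50D-GFP cell wells / Read-out basis: GFP/RFP fluorescence ratio / Schedule: overnight compound exposure at 37 °C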
Rce1 inhib – blocks yeast Ras-converting enzyme; yeast membranes, quenched prenylated peptide cleavage fluorescence; 0.27% of 290,000 active; calls only;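 active means fall in fluorescence gain of 50% or more versus controls, with final raw signal at or below 3038400; inconclusive means same 50% fall but final raw signal above 3038400; inactive means fall in fluorescence gain under 50%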;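 further: plate controls were neutral control wells for no effect and wells lacking membranes for full effect; tested at 10 µM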
Target sequence (Q03530 whole entry, looked up): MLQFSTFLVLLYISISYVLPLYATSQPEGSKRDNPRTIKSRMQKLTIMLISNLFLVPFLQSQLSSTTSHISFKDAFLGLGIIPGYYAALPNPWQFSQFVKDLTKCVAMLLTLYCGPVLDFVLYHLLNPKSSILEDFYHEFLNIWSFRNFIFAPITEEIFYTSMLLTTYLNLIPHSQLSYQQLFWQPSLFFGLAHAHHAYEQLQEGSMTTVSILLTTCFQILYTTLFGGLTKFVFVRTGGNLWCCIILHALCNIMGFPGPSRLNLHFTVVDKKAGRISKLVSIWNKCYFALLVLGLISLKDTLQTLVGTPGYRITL
PABP polyA inh – blocks human PABP binding to poly(A) RNA; P11940; fluorescence polarization; inhibition, % at 35 µM; 1% of 290,000 active; AID 2014;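 active means 50% or more with normal probe brightness, or confirmed in later tests; inconclusive means above 50% with abnormal brightness, or retests that disagree; inactive means below 50% or failed in later tests; about a fifth of its hits are not listed in these tables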;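 further: calls also rest on retests at 20 µM and on dose response follow-up; controls were probe without protein and protein plus probe with vehicle; some compounds called inactive have numbers as strong as hits; many hits fall short of the cut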
UUG fidelity – yeast start codon fidelity modulation; 0.13% of 350,000 active; activity score, % at 18.7 µM; S. cerevisiae UUG-firefly luciferase reporter, luminescence/redox ratio; AID 602363;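 active means replicate mean at a twofold rise or more, about +100% in these data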;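 further: firefly luciferase made from a UUG start codon reports start codon fidelity; reporter light over untreated wells divided by growth signal over untreated wells; some hits fall short of that in this replicate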
eIF4H inh retest – recorded beside eIF4H inh, whose call it bears; inhibition, %; compound at 20 µM; confirmation average;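 mean of two retest wells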
PABP polyA inh retest – further read-out of PABP polyA inh, marked with its call; inhibition, %; compound at 20 µM; confirmation repeats;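 mean of two retest wells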
MT1-MMP act inh RFP – second read-out of MT1-MMP act inh, no call of its own (marks repeat the call); RFP signal change, %; measured here: RFP expression control read;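 0 = vehicle wells; hits needed this value within 50% of zero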
An asterisk follows results filed as active; i = inactive; ? = inconclusive; · = not tested or not shown.

Start of the data: the first 3 compounds as a preview:
SMILES	eIF4H inh	CSC inhib	HIV Env fusion	MT1-MMP act inh	MT1-MMP act inh RFP	Rce1 inhib	PABP polyA inh	UUG fidelity	others
COc1ccccc1N1CCN(CC(=O)Nc2ccc(CN3CCCCC3)cc2)CC1	21.2	7.7	10.0	10.6	6.5	i	30.3	·
COCCNC(=O)c1c(NC(=O)c2nc(SC)ncc2Cl)sc2c1CCCC2	1.9	·	·	-19.0	2.0	i	6.2	-7.3
CCCc1nc(SCc2ccccc2Cl)n[nH]1	5.8	-28.1	·	3.0	7.3	i	1.0	-17.8

All compounds of this part, from the start:
SMILES	eIF4H inh	CSC inhib	HIV Env fusion	MT1-MMP act inh	MT1-MMP act inh RFP	Rce1 inhib	PABP polyA inh	UUG fidelity	others
COc1ccccc1N1CCN(CC(=O)Nc2ccc(CN3CCCCC3)cc2)CC1	21.2	7.7	10.0	10.6	6.5	i	30.3	·
COCCNC(=O)c1c(NC(=O)c2nc(SC)ncc2Cl)sc2c1CCCC2	1.9	·	·	-19.0	2.0	i	6.2	-7.3
CCCc1nc(SCc2ccccc2Cl)n[nH]1	5.8	-28.1	·	3.0	7.3	i	1.0	-17.8
Cc1ccc(OCc2nnc(SC(C)C(=O)O)n2-c2ccccc2)cc1 (stereo unspecified)	56.1	-10.2	-13.0	-2.4	2.3	i	34.4	2.9	eIF4H inh retest=4.0;PABP polyA inh retest=20.5
Cc1ccc(N2CC(NS(=O)(=O)c3cc(F)ccc3F)CC2=O)cc1C (stereo unspecified)	·	10.5	·	1.7	0.1	i	·	·
O=C(CN1CCN(S(=O)(=O)c2ccc(F)cc2)CC1)Nc1cc(C(F)(F)F)ccc1Cl	-7.4	-3.5	·	-1.5	-1.6	i	3.6	-10.4
CC1CN(C2CCCCC2)C(=S)N(c2ccccc2)C1=O (stereo unspecified)	·	·	5.0	-2.4	4.3	·	·	5.7
CC1CCN(c2nnc(-c3ccccc3)c3ccccc23)CC1	-5.0	-18.5	-2.9	-2.7	0.1	i	-5.1	·
FC(F)(Cl)c1nnc2ccc(Sc3ccccn3)nn12	2.7	·	26.4	-5.0	-5.5	i	-10.5	·
CC(C)c1ccc(/C=N/NC(=O)c2nnn(-c3nonc3N)c2CN2CCOCC2)cc1	-23.9	12.1	6.2	-0.3	0.1	i	4.1	9.2
O=C(c1cccnc1)N1CCN(c2ccc3ccccc3n2)CC1	0.2	-6.0	15.4	2.8	1.2	i	-0.9	·
Cc1ccc(NC(=O)C(C)OC(=O)c2ccc(NS(=O)(=O)c3ccc(F)c(F)c3)cc2)cc1 (stereo unspecified)	1.0	8.6	·	1.1	-3.8	i	4.8	-12.5
Cc1cc(=O)n2c3ccccc3n(CC(O)CN3CCN(CCO)CC3)c2c1C#N (stereo unspecified)	6.7	-12.9	-13.3	-3.0	-3.2	i	-7.9	-11.2
CCOc1ccccc1NC(=O)c1nnn(CC(=O)Nc2ccc3c(c2)OCO3)c1N	0.1	-25.7	4.1	-1.7	1.3	i	12.0	-12.3
Cn1cnnc1Sc1cc(N2CCN(S(=O)(=O)c3ccc4ccccc4c3)CC2)ccc1[N+](=O)[O-]	-16.4	-9.7	·	-10.1	-13.6	i	30.4	-6.6
O=C(COc1ccccc1Cl)N1CCN(c2ccc(F)cc2)CC1	-3.0	-11.4	-23.5	3.7	2.9	i	-1.6	-22.2
CC(=O)COC(=O)C1CC(=O)N(c2ccc(C)c(C)c2)C1 (stereo unspecified)	-4.5	-4.2	16.6	-2.2	-0.2	·	-0.4	·
Cc1occc1-c1nnc(SCC(=O)N2CCOCC2)n1CC(C)C	-4.5	7.4	-18.0	0.8	8.7	i	6.8	-12.7
CCC(C)NC(=O)c1ccccc1NC(=O)CN1C(=O)c2ccccc2S1(=O)=O (stereo unspecified)	-1.4	11.8	-19.7	-1.1	3.1	i	19.7	-5.7
O=C(O)c1ccc(Cl)c(S(=O)(=O)Nc2ccc(S(=O)(=O)Nc3cccc(Cl)c3)cc2)c1	-2.6	0.3	-8.9	-0.1	-0.6	i	9.7	-6.3
Cn1c(=O)[nH]c(=O)c2[nH]c(CN3CCN(Cc4ccccc4)CC3)nc21	-3.9	-14.8	-5.2	-0.1	3.1	i	4.0	-10.0
CC1(c2cccc(Br)c2)NC(=O)N(CC(=O)Nc2ccc(S(N)(=O)=O)cc2)C1=O (stereo unspecified)	-9.2	-9.7	-1.8	-4.3	-1.6	i	-8.1	0.7
CC(=O)NC(=S)Nc1ccccc1C(=O)Nc1ccccc1	8.1	-5.1	-8.7	0.1	3.1	i	8.5	·
COCCNc1ncnc2c1ncn2[C@H]1CN(CCOC)C[C@@H](CO)O1	·	·	6.3	-1.5	0.2	·	·	-22.7
CCCCCCCCCCOC(=O)Cn1c(COc2ccccc2OC)[n+](C)c2ccccc21	-0.1	93.2*	86.3*	-12.6	-37.3	i	23.7	-8.5
N#CCOc1ccccc1CNC[C@H]1O[C@@H](n2cnc3c(=O)[nH]c(N)nc32)[C@H](O)[C@@H]1O	·	·	-81.5	1.4	4.6	·	·	-12.1
CSCCC(NC(N)=O)C(=O)Nc1cccc(S(=O)(=O)N2CCOCC2)c1 (stereo unspecified)	-4.6	-2.1	15.2	-0.6	2.6	i	1.9	·
CCCCn1c(N)c(N(CCOC)C(=O)c2ccc(C)c(S(=O)(=O)N3CCOCC3)c2)c(=O)[nH]c1=O	·	3.9	·	-0.2	0.2	·	·	-10.7
COc1ccc(-c2nnc(NC(=O)c3ccc4c(c3)OCCO4)o2)cc1	6.0	37.4	-7.1	-0.7	-5.1	i	1.3	-27.6
CCOc1cccc(OCCOCCn2cnc3ccccc3c2=O)c1	5.6	1.5	0.2	5.1	3.8	i	8.7	4.7
O=C(Cc1ccc(Cl)cc1)c1ccccc1	·	·	-24.0	-3.2	-4.6	·	·	-14.1
O=C(NC1CCCCC1)c1cc(F)cc2c1OCOC2	2.7	-9.7	-0.4	-1.2	3.5	i	8.9	-39.2
CCOc1ccc(/C(O)=C2/C(=O)C(=O)N(c3ccccn3)C2c2ccc(F)cc2)c(C)c1 (stereo unspecified)	6.1	53.6	-18.8	1.3	5.1	i	3.3	·
COc1ccc(N2CCN(C(=O)CSc3nnc4c(C)cc5ccccc5n34)CC2)cc1	-0.3	7.8	3.0	-4.1	-7.7	i	-6.2	·
COc1ccc(C(=O)N2CCN(Cc3ccc4c(c3)OCO4)CC2)cc1OC	3.1	-6.2	15.1	1.5	-18.6	i	0.6	-8.5
O=C(C1CCCN(Cc2ccc([N+](=O)[O-])cc2)C1)N1CCCCC1 (stereo unspecified)	-3.0	-12.6	3.5	2.0	-2.2	i	4.9	-24.1
CCOc1ccc(N(CC(=O)NCCSCc2ccccc2Cl)S(C)(=O)=O)cc1	-11.0	8.0	28.2	-2.0	-6.4	i	-6.4	-3.1
CC(C)C[C@@H](CSc1ccc(Br)cc1)N1CCN(CCc2ccccc2)CCC1=O	9.0	16.4	8.2	-5.7	-14.5	i	-3.3	-15.9
CN(C(=O)c1cc(COc2c(F)cccc2F)on1)C1CCOC1 (stereo unspecified)	4.8	-14.4	-13.4	-4.5	-4.5	i	-0.3	-1.2
COCc1cc(=O)c2ccccc2o1	·	·	-11.0	1.0	2.5	·	·	-21.2
CN(C)S(=O)(=O)c1ccc(NC(=O)CN2CCN(c3ccccn3)CC2)cc1	5.2	-8.3	-5.8	2.3	-0.3	i	6.6	-18.9
N#Cc1cc(Oc2ccc(Cl)cc2)c(N2CCOCC2)cc1C#N	·	30.8	-3.0	2.8	-1.9	i	·	-4.7
CC1(C)CC(=O)C(N=Nc2c(Cl)cc(Cl)cc2Cl)=C(O)C1	-2.9	-9.7	-9.5	7.4	2.7	i	-4.9	·
C[C@@H]1CN([C@H](C)CO)C(=O)CCCn2cc(nn2)CO[C@H]1CN(C)S(=O)(=O)c1ccccc1C#N	·	·	-0.9	2.7	6.4	·	·	-11.3
CCCCn1c(N)c(N(CCOC)C(=O)COc2ccc(OCC)cc2)c(=O)[nH]c1=O	·	-12.2	·	-0.4	-1.7	i	·	-9.0
Cc1occc1C(=O)NC(C)C12CC3CC(CC(C3)C1)C2 (stereo unspecified)	-1.8	-17.4	14.9	-1.7	1.3	i	-6.2	·
O=S(=O)(c1cccs1)N1CCN(Cc2nc3ccccc3s2)CC1	10.1	15.0	-46.1	-3.5	-3.0	i	7.0	-8.8
COc1ccc(CN2CC(C(=O)NCCN3CCOCC3)CC2=O)cc1 (stereo unspecified)	-4.9	-5.0	·	-1.5	-0.5	i	-6.7	-2.7
O=C(O)CSC(C(=O)Nc1ccc(C(F)(F)F)cc1)c1ccccc1 (stereo unspecified)	-11.4	3.7	-20.9	0.7	2.2	i	-4.4	-7.9
COc1ccc(C(C)=O)cc1CN1C(=O)NC2(CCCCC2C)C1=O (stereo unspecified)	-6.8	-3.5	·	-2.0	3.7	i	3.3	-17.9
Cc1ccsc1CN(C)CC(=O)NCC(=O)Nc1ccc(F)cc1	·	-17.1	-3.4	-0.4	1.5	·	·	-2.7
CC(=O)Nc1nc2ccc(S(=O)(=O)N3CCCC3)cc2s1	0.9	-3.0	-16.8	2.1	-1.3	i	-1.7	-13.2
Cc1ccc(N2CC(C(=O)NCCC(C)C)CC2=O)cc1 (stereo unspecified)	-3.6	-13.0	·	3.1	1.1	i	-2.9	-2.2
O=C(NCCO)c1ccc2c3n(nc2c1)-c1ccc(Cl)cc1CO3	-8.4	4.5	-81.2	-0.4	-2.6	i	13.6	-18.9
COc1ccccc1C(O)c1ncc(-c2ccccc2C)[nH]1 (stereo unspecified)	·	·	-15.7	1.1	1.1	·	·	-20.7
CC(C)(C)OC(=O)N1O[C@H]2CC1[C@@H]1[C@@H]2N=NN1CCc1ccncc1	·	·	-11.6	4.4	5.0	·	·	-7.2
CN1CCN(c2nc(C#N)cc(-c3ccccc3)n2)CC1	3.8	-17.3	·	5.0	0.1	i	3.7	-13.3
Cc1cccc(NC(=O)Nc2ccc(OCc3ccccc3)cc2)n1	-8.4	·	13.2	8.7	0.2	i	-1.7	-13.4
COc1ccc(NC2CCCN(C(=O)CCc3ccccc3F)C2)cc1 (stereo unspecified)	1.4	1.1	14.3	0.5	-3.4	i	0.1	-7.4
C[C@H]1CN(S(=O)C(C)(C)C)[C@H](CCO)/C1=C\c1ccccc1 (stereo partly specified)	·	·	-84.1	2.2	-0.1	·	·	-10.7

(continued)
SMILES	eIF4H inh	CSC inhib	HIV Env fusion	MT1-MMP act inh	MT1-MMP act inh RFP	Rce1 inhib	PABP polyA inh	UUG fidelity	others
CCOc1ncnc2c1oc1nc(CC(C)C)c3c(c12)CC(C)(C)OC3	0.1	-8.2	·	-4.9	1.5	i	-2.0	-6.7
CSc1ccc(CN2CCCC(CO)(Cc3ccccc3)C2)cc1 (stereo unspecified)	?	33.9	-17.9	1.3	0.5	i	?	·
O=C1c2ccccc2-c2cccc(C(=O)N3CCCCCC3)c21	11.5	-44.9	-2.0	-3.2	-4.6	i	-2.7	20.9
COC(=O)C[C@@H]1C[C@@H]2c3cc(NS(=O)(=O)c4ccc(F)cc4)ccc3O[C@@H]2[C@@H](CO)O1	·	·	1.2	-2.5	-3.3	·	·	0.1
O=C(Nc1c2c(nn1-c1ccccc1)CS(=O)(=O)C2)C1CCCC1	-8.4	18.5	8.2	2.3	2.3	i	-6.1	-12.5
Nc1nonc1-n1nnc(C(=O)N/N=C/c2ccc(Cl)cc2Cl)c1CN1CCOCC1	-1.8	·	8.2	-4.8	-1.9	i	0.9	-12.8

The list is partial (hit frequency here may not be typical).
